# Screening data (PubChem BioAssay)
# Calb biofilm kill – mixture kills Candida albicans biofilm cells; inhibition, % at 7.6 µM; C. albicans biofilm persisters + clotrimazole, fluorescence viability; primary screen in compound mixtures of four per well; AID 1242; hit rate 0.02% among 120,000;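 active = inhibition above 30.3% in the primary screen of four-compound pools, then above 30% when the compound was retested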;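 note: compounds exposed to preformed 24 h biofilms for 48 h; the number belongs to the whole pool; some results filed as inactive read as strong as hits; inactives centre near 12; 0% = biofilm with clotrimazole alone and 100% = kill control; retested singly at about 60 µM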
#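 Assay system: C. albicans biofilms / Medium: RPMI/MOPS medium, pH 7.0 / Schedule: biofilm formation 24 h, compound exposure 48 h, 37 °C / Measured by: Alamar Blue fluorescence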
# * marks the source's active call; other numbers are inactive results.
# Preview (3 entries):
Molecule	Calb biofilm kill
CC(=O)c1sc(NC(=O)c2cc(=O)c3ccccc3o2)nc1C	8.2
O=C(Cn1cncn1)N/N=C/c1cccnc1	7.1
CC(C)(C)c1ccc(/C=N/NC(=S)NC2CCCCC2)cc1	9.5

# The whole of this part (from the top)
Molecule	Calb biofilm kill
CC(=O)c1sc(NC(=O)c2cc(=O)c3ccccc3o2)nc1C	8.2
O=C(Cn1cncn1)N/N=C/c1cccnc1	7.1
CC(C)(C)c1ccc(/C=N/NC(=S)NC2CCCCC2)cc1	9.5
COc1cc(OC)c(N(C)S(=O)(=O)c2cccc(C(=O)Nc3nnc(C4CC4)s3)c2)cc1Cl	17.3
Cc1ccc(C)c(NC(=O)CS(=O)(=O)c2cn(C)c3ccccc23)c1	7.8
COc1cc(/C=N/NC(=O)CSc2nc3ccccc3n2C)cc(OC)c1OC	7.6
CCCCn1c(CN2CCN(c3cccc(Cl)c3)CC2)nc2c1c(=O)[nH]c(=O)n2C	13.5
COc1ccc(C(CCN(Cc2ccc(OC)c(OC)c2)C(=O)CCl)c2ccccc2)cc1 (centres undefined)	15.1
COc1ccccc1NS(=O)(=O)c1cc(NC(=O)c2cnccn2)ccc1N1CCOCC1	18.7
O=C(Nc1ccc(C(=O)O)cc1)/C(=C\C=C\c1ccccc1)NC(=O)c1cccc(Br)c1	-2.8
O=C(CCl)Nc1cn(-c2ccccc2)nc1-c1ccc(F)cc1	1.3
Cc1cccc(NC(=O)c2ccc(NCCO)c([N+](=O)[O-])c2)n1	19.6
CCOC(=O)c1sc(NC(=O)CCCCl)nc1C	12.1
CCN(CC)c1ccc(NC(=O)COc2ccc(C#N)cc2)cc1S(=O)(=O)Nc1ccc(OC)cc1	12.4
c1ccc(COc2ccc(OCCCN3CCCC3)cc2)cc1	17.2
Cc1ccc(CN2CCN(CCC(C)C)C(CCO)C2)s1 (centres undefined)	7.0
Cc1c(C(=O)OCC[N+]2(C)CCCCC2)oc2ccccc12	-7.6
Cc1nn(CC(=O)NCCc2ccc(Cl)cc2Cl)c(C)c1[N+](=O)[O-]	25.4
O=C(Cn1cnc2ccccc2c1=O)Nc1ccc(N2CCOCC2)cc1	13.6
Cc1ccc(Nc2nc(N3CCN(C)CC3)nc(N)c2[N+](=O)[O-])cc1C	9.2
C/C=C/c1ccc(OCCOc2ccc(C=O)cc2)c(OC)c1	22.2
CN(Cc1cccc2ncccc12)C(=O)CC1C(=O)NCCN1Cc1ccc(F)cc1 (centres undefined)	-5.2
Cc1ccc(S(=O)(=O)NC(C)(C)CSc2ncccn2)cc1	30.3
COCCNC(=S)NNc1ccc(Cl)c(C(=O)O)c1	22.6
O=C1c2ccccc2NC(c2cn[nH]c2-c2ccccc2)N1O (centres undefined)	6.3
COCCCNc1nc(N)c([N+](=O)[O-])c(NCC2CCCO2)n1 (centres undefined)	16.2
COc1ccc(CCn2c(-c3cc([N+](=O)[O-])cc([N+](=O)[O-])c3)nc3nc4ccccc4nc32)cc1	8.4
Cc1cc(C)nc(N/N=C/C=C/c2ccccc2)n1	7.9
Cc1nn(C)c(C(=O)Nc2ccc(S(=O)(=O)NC34CC5CC(CC(C5)C3)C4)cc2)c1Br	14.5
COc1ccc(NC(=S)Nc2ccc(N(C)C(C)=O)cc2)cc1	12.2
C/C(CC1CC(C)(C)OC1=O)=N/Nc1nc(-c2ccccc2)cs1 (centres undefined)	28.2
CCCCC(CCC(=O)Nc1ccn(-c2ccccc2)n1)C(=O)O (centres undefined)	19.7
COc1ccc(N2C(=O)c3ccccc3NC2c2ccc(OC)c(Cn3nnc4ccccc43)c2)cc1 (centres undefined)	17.1
O=[N+]([O-])c1cccc(C(=S)N2CCN(c3ccccc3F)CC2)c1	8.2
Cc1ccccc1CSCCC(=O)NCCC1=CCCCC1	7.6
c1ccc(Cn2c(CNc3nc4ccccc4n3CCN3CCCCC3)nc3ccccc32)cc1	14.5
COc1ccc(/C=c2\s/c(=C/C(=O)c3ccc(C)cc3)[nH]c2=O)cc1OC	11.6
CCOC(=O)C1CCCN(CCC(=O)Nc2ccccc2C)C1 (centres undefined)	21.7
CC(NCc1nc2ccccc2n1C)C12CC3CC(CC(C3)C1)C2 (centres undefined)	63.4
Cc1cccc(Oc2coc3cc(OC(=O)c4cncc(Br)c4)ccc3c2=O)c1	17.5
CCN(CC)C(=O)CN1C(=O)c2cccc3cccc(c23)C1=O	13.7
CCC(C)NC(=O)Cn1c(-c2ccccc2)cc(C(C)=O)c1C (centres undefined)	16.3
CNC(=O)c1c(C)noc1C	15.9
COC(=O)CSc1n[nH]c(=S)s1	21.5
CC(=O)NC1C(OCc2ccccc2)OC(COC(C)=O)C(OC(C)=O)C1OC(C)=O (centres undefined)	14.0
NC(=S)NNC(=O)c1ccccc1Cl	24.2
Cc1nc2ccc(NC(=O)c3ccc(Br)o3)cc2s1	20.4
CCc1nc2n(n1)C(O)c1cc([N+](=O)[O-])ccc1S2 (centres undefined)	22.8
CCN(CC(=O)N1CCN(c2ccccc2)CC1)S(=O)(=O)c1ccc(C)cc1	18.8
CC1CCCCC1NCC(=O)Nc1ccccc1-c1ccccc1 (centres undefined)	3.9
NNC(=O)CCc1nc2ccc(O)cc2[nH]1	20.9
C[C@H](NC(=O)c1nc[nH]c1C(=O)N[C@@H](Cc1ccccc1)C(=O)OCc1ccccc1)c1ccccc1	15.2
Cc1cc(S(=O)(=O)N2CCN=C2c2ccccc2)c(C)cc1Cl	12.3
O=C(NCc1ccccc1Cl)c1ccc2nnsc2c1	7.0
O=C(N1CCN(c2cccc(Cl)c2)CC1)C1(c2cccs2)CCOCC1	7.8
CNC(=O)NC(=O)C(C)N1CCN(C/C=C/c2ccccc2)CC1 (centres undefined)	19.2

# Additional entries:
Molecule	Calb biofilm kill
O=C(COc1ncnc2ccc(Br)cc12)NCc1ccco1	8.2
O=C(c1cnn(C(=O)c2cccc(S(=O)(=O)N3CCOCC3)c2)c1)c1ccccc1O	7.6
Cc1c(C(=O)NCC2CCCO2)cccc1[N+](=O)[O-] (centres undefined)	8.2
CCN1CCN(CCC2Oc3cc([N+](=O)[O-])ccc3NC2=O)CC1 (centres undefined)	13.9
CCOC(=O)c1sc(=NC(=O)/C=C/c2ccccc2)n(C)c1C	-6.2
CCOC(=O)C(NC(=O)NCc1cccc(C(F)(F)F)c1)(OCC)C(F)(F)F (centres undefined)	8.6
Cc1cccc(C)c1N(CC(=O)NCc1ccc(F)cc1)C(=O)c1csnn1	14.3
O=S(=O)(c1ccc(Br)cc1)N1CCN=C1SCc1cccnc1	19.6
COc1ccccc1C(N)=S	1.4
COc1ccc(N2CCN(C(c3ccc4ncccc4c3)c3nnnn3C(C)C)CC2)cc1 (centres undefined)	20.4
Cc1ccc(C(=O)Nc2c(C)n(C)n(-c3ccccc3)c2=O)cc1	22.8
O=C(/C=C/c1ccco1)NC(=S)Nc1cc(C(F)(F)F)ccc1N1CCOCC1	7.8
COCCCNC(=O)CN(c1cc([N+](=O)[O-])ccc1OC)S(C)(=O)=O	10.7
CC1(C)N([O-])C2=C(CCCC2)[N+]1=O	8.0
Cc1cccc(NC(=O)c2cc3c(=O)n4ccccc4nc3n(CC(C)C)c2=N)c1	18.8
CC1(C)Cc2c(c(-c3ccccc3)nc3sc4c(=O)[nH]c(=S)[nH]c4c23)CO1	11.4
OCCCNc1cc(-c2ccnc(Nc3cccc(Cl)c3)n2)ccn1	16.0
COc1cc(C(CC(=O)N2CCN(c3ccccc3)CC2)c2c(OC)cc(OC)c3ccc(=O)oc23)cc(OC)c1OC (centres undefined)	17.9
CC1CC(C)CN(CCCCOc2ccc([N+](=O)[O-])cc2)C1 (centres undefined)	3.7
Cc1cc([N+](=O)[O-])cc2c1NC(=O)C2(O)N1CCCCCC1 (centres undefined)	8.8
CCCCN(CC)S(=O)(=O)c1ccc(C(=O)N(CCCN(C)C)c2nc3cc(C)cc(C)c3s2)cc1	21.4
CCN(C(=O)COC(=O)CNC(=O)c1ccc2ccccc2c1)C1CCS(=O)(=O)C1 (centres undefined)	-6.8
O=C(NC(Cc1c[nH]c2ccccc12)C(=O)OCC(=O)c1cccc2ccccc12)c1cccs1 (centres undefined)	15.6
Cn1c(=O)[nH]c(=O)c2c1nc(Br)n2C/C=N/NC(N)=S	17.4
O=C(N/N=C/c1ccc(O)cc1)c1csc2c1CCCC2	20.7
CCCOc1ccccc1NC(=O)c1ccc([N+](=O)[O-])cc1	13.0
CN(CCC#N)C(=O)CSc1nnc(-c2ccco2)n1N	12.2
Nc1nc(-c2c(Cl)cccc2Cl)no1	17.6
COC(=O)CN1C(c2ccccc2O)Nc2ccc(Br)cc2C1c1ccccc1 (centres undefined)	11.2
CC12CC(O)C3c4ccc(O)cc4CCC3C1CCC2=O (centres undefined)	22.6
CN(C)CC(C)(C)CNS(=O)(=O)c1ccc(Cl)c(Cl)c1	13.3
O=C1c2ccccc2NC(c2ccc([N+](=O)[O-])cc2)N1O (centres undefined)	12.8
Cc1cc(C(=O)NC(CC(C)C)C(=O)O)cc(C)c1[N+](=O)[O-] (centres undefined)	7.8
Cc1ccc(C(C)C)c(OCC(=O)NN=C2CCCC2)c1	22.7
NC(=O)C1CCN(C(=O)CCC(=O)c2ccc(Br)cc2)CC1	12.9
CCOC(=O)N1CCN(c2ccc(C(F)(F)F)cn2)CC1	14.1
COc1ccc(Cc2c(O)nc(SCC(=O)N3CCCCCC3)[nH]c2=O)cc1	5.7
Clc1ccccc1N=C1SCCS1	16.6
O=C(COc1ccccc1)N1CCN(c2ncccn2)CC1	16.4
C/C(CC1CC(C)OC1=O)=N\NC(N)=S (centres undefined)	20.8
O=C(O)C1(c2ccccc2)CCN(S(=O)(=O)c2cccs2)CC1	1.0
CN(C)CCNC(=O)/C(=N\O)c1ccccn1	1.8
COc1ccc(CC(=O)NNC(=S)NCC2CC2)cc1OC	15.7
CN(CC(=O)Nc1ccc(SC(F)F)cc1)C1CCCCC1	3.1
COC(=O)C[N+](C)(C)CC#Cc1ccccc1	-1.3
CCN(CC)S(=O)(=O)c1cccc(NC(=O)c2ccc(Sc3nncn3C)c([N+](=O)[O-])c2)c1	8.0
COc1ccc(Nc2nc(N/N=C/c3ccc(N(C)C)cc3)nc(C)c2[N+](=O)[O-])cc1	10.3
CNc1ccccc1C(C)(C)c1cc(-c2ccc(F)cc2)no1	7.8
CCCCNC(=O)C1CCN(S(=O)(=O)N2CCCCCC2)CC1	16.3
COc1ccccc1/C=C(/NC(=O)c1ccc(Cl)cc1Cl)C(=O)O	6.8
O=C1C2C3C=CC(C3)C2C(=O)N1c1ccc(N2CCN(c3ccccn3)CC2)c([N+](=O)[O-])c1 (centres undefined)	17.6
COc1ccc(N2C(S)=C(C#N)C(=O)NC23CCCCC3)cc1	-3.5
O=C(NCc1ccc(F)cc1)c1ccccc1OCc1ccccc1	8.5
COc1ccc(-n2c(=O)c3c4c(sc3n(CC(=O)Nc3cc(C)[nH]n3)c2=O)CCC4)c(OC)c1	1.8
O=c1[nH]c(CSc2ccccn2)nc2c1oc1ccccc12	4.4
Cc1cccc(NC(=O)C2(C)CC3c4ccccc4C2c2ccccc23)c1C (centres undefined)	6.6

# The list continues.
Molecule	Calb biofilm kill
CCOc1ccc(C(C)NC(=S)NCc2ccc(Cl)cc2)cc1 (centres undefined)	17.1
S=C(c1c[nH]c2ccccc12)N1CCOCC1	15.1
O=C(Cc1ccc(Br)cc1)NCCc1ccc(Cl)cc1Cl	4.4
Cc1cc(C)c(NC(=O)/C(C#N)=C/c2ccc(OCc3ccc(F)cc3)cc2)c(C)c1	16.2
O=C1CN(C(=O)COc2ccc(Br)cc2)c2ccccc2N1	-1.7
Nc1ncc(-n2cncn2)c(-c2ccc(Cl)cc2)n1	17.6
O=C(CC(Nc1ccccc1Cl)C(=O)O)c1ccccc1 (centres undefined)	12.1
Cc1ccc(NC(=O)C2CC(=O)N(CCc3ccccc3)C2)c(C)c1 (centres undefined)	19.9
N#C/C(=C\c1ccccc1[N+](=O)[O-])C(=O)NCc1ccccc1	10.6
N#CCCN(C(=O)COc1ccc(C#N)cc1)c1ccc(F)cc1	8.0
Cc1n[nH]c(=S)n1/N=C/c1ccccc1OCc1ccc(Cl)cc1Cl	9.8
CCOC(=O)N1CCN(C(=S)Nc2ccc3nc(N4CCN(CC)CC4)cc(C)c3c2)CC1	12.0
O=C(NN=C1CCCCC1)NC1CCCCC1	4.6
Nc1c(-c2cccc([N+](=O)[O-])c2)nc2ccccn12	10.8
O=C(NC(Cc1ccccc1)C(=O)O)/C(=C\c1ccccc1F)NC(=O)c1ccccc1 (centres undefined)	22.8
COc1ccc(OC)c(-c2cc(C(=O)NCc3ccc(Cl)cc3)no2)c1	14.3

# Looked up by structure from the list above, 2 records:
Molecule	Calb biofilm kill
N#C/C(=C\c1ccccc1[N+](=O)[O-])C(=O)NCc1ccccc1	10.6
CCOC(=O)N1CCN(C(=S)Nc2ccc3nc(N4CCN(CC)CC4)cc(C)c3c2)CC1	12.0

# Later entries:
Molecule	Calb biofilm kill
COc1ccc(C)cc1NC(=O)CCCN1C(=S)NC(C)(C)CC1C (centres undefined)	17.7
CCCNC(=O)c1onc(CSc2ccncc2)c1C(=O)NCCC	13.6
Cc1ccccc1NC(=O)N1CCN(C(=O)c2ccco2)CC1	17.0
COc1ccc(NS(=O)(=O)c2cccc(Cl)c2)cc1S(=O)(=O)N1CCCCC1	12.8
COc1ccc(C(=O)Nc2cc(Cl)ccc2C(=O)O)cc1	-1.8
CC(=O)Nc1nc2ccccc2n1CCN1CCOCC1	6.3

# Some of the compounds tested (hit frequency here may not be typical).
